eIF4H inh: inhibitors of RNA binding by human eIF4H | eIF4H fluorescence polarization binding assay | inhibition, % at 35 µM | hit rate 0.94% among 290,000 | AID 2012;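 active means 50% or more with normal probe brightness, or confirmed in later tests; about a fifth of its hits are not listed in these tables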;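 further: calls also rest on retests at 20 µM and on dose response follow-up; 0% = protein and probe with vehicle and 100% = probe without protein; strong numbers were not always called active; many hits fall short of the cut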
Yeast UUG start: alters start codon recognition fidelity in yeast. S. cerevisiae UUG-firefly luciferase reporter, luminescence/redox ratio. activity score, % at 18.7 µM. hit rate 0.13% among 350,000. AID 602363;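 active means replicate mean at a twofold rise or more, about +100% in these data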;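 further: firefly luciferase made from a UUG start codon reports start codon fidelity; reporter light over untreated wells divided by growth signal over untreated wells; some hits fall short of that in this replicate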
MT1-MMP act inh: inhibitors of human MT1-MMP activation | GFP/RFP ratio change, % at 20 µM | P50281 | AID 651647 | HT1080 RFP-PRO-GFP cells, GFP/RFP ratio fluorescence, overnight; percent of plate control window, DMSO zero | hit rate 0.061% among 360,000;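 active means GFP/RFP ratio change of at least 30% with cell ATP level not reduced by more than half and red fluorescence within 50% of control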; further: strong numbers were not always called active
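Test system: HT1080 cells expressing an RFP-PRO-GFP fluorescent reporter construct / Compound dosing: single-point 20 µM compound, 1% DMSO / Schedule: cells overnight before dosing, compound overnight, 37 °C, 5% CO2 / Evaluation: GFP/RFP fluorescence ratio / Control set: DMSO and RFP-L50D-GFP cell wells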
PABP FP inh: PABP-poly(A) binding inhibition. P11940. PABP-poly(A) RNA binding, fluorescence polarization. inhibition, % at 35 µM. hit rate 1% among 290,000. AID 2014;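 active means 50% or more with normal probe brightness, or confirmed in later tests; about a fifth of its hits are not listed in these tables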;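 further: calls also rest on retests at 20 µM and on dose response follow-up; controls were probe without protein and protein plus probe with vehicle; some compounds called inactive have numbers as strong as hits; many hits fall short of the cut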
Target sequence (P11940 whole entry, looked up): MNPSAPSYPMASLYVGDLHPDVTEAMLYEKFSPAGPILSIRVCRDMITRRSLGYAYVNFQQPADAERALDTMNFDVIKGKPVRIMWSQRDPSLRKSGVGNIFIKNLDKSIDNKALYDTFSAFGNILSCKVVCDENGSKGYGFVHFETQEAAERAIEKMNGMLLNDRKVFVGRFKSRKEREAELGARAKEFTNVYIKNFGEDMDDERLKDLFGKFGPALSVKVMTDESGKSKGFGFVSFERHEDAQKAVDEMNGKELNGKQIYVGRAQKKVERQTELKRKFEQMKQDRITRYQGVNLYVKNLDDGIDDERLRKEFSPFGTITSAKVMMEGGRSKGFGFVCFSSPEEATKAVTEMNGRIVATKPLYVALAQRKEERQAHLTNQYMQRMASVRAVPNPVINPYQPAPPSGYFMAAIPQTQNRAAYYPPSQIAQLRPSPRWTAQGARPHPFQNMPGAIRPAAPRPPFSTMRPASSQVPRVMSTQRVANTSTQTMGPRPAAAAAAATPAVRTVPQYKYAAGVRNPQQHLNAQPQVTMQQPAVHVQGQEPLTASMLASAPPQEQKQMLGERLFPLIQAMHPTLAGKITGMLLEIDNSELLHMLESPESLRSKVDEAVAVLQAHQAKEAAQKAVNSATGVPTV
Env fusion inh: HIV envelope-mediated fusion inhibition | inhibition, % at 12.3 µM | hit rate 1.1% among 360,000 | HeLa-JRFL Env/CEM21 cell fusion, luciferase;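 active means mean replicate inhibition score of at least 50 and every replicate individually at or above 50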;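 further: 0% = plate neutral controls and 100% = maraviroc near 300 nM; one replicate is shown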
Rce1 inhib: yeast Ras-converting enzyme inhibition | Q03530 | yeast membranes, quenched prenylated peptide cleavage fluorescence | calls only | hit rate 0.27% among 290,000;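 active means fall in fluorescence gain of 50% or more versus controls, with final raw signal at or below 3038400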;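 further: plate controls were neutral control wells for no effect and wells lacking membranes for full effect; tested at 10 µM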
Target sequence (Q03530 whole entry, looked up): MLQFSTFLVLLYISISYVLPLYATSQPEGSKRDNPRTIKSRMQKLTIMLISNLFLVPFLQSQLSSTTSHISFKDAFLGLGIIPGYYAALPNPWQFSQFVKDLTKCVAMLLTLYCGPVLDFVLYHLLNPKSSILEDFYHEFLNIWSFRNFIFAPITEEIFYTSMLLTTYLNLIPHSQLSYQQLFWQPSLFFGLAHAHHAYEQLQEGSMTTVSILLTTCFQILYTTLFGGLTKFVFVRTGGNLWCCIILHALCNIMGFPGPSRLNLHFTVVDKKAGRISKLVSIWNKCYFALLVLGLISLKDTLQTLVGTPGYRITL
CSC inhib: cancer stem cell inhibition; cancer stem cell-like cells viability, luminescence; inhibition, % at 7.5 µM; hit rate 1.1% among 300,000; AID 2717;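 active means mean at 75% or more and at least half the replicates too; tested in HMLE shEcad cells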;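 further: 0% = median of negative and 100% = median of positive control wells; the first replicate is given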
eIF4H inh retest: second read-out of eIF4H inh, no call of its own (marks repeat the call); inhibition, %; compound at 20 µM; confirmation average;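 mean of two retest wells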
PABP FP inh retest: recorded beside PABP FP inh, whose call it bears; inhibition, %; compound at 20 µM; confirmation repeats;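 mean of two retest wells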
MT1-MMP act inh RFP: recorded beside MT1-MMP act inh, whose call it bears; RFP signal change, %; measured here: RFP expression control read;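 0 = vehicle wells; hits needed this value within 50% of zero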
* = called active by the depositor; i = inactive; . = not tested or not shown. This is a subset; the hit share may differ from the screen's.

SMILES | eIF4H inh | Yeast UUG start | MT1-MMP act inh | MT1-MMP act inh RFP | PABP FP inh | Env fusion inh | Rce1 inhib | CSC inhib | others
Cn1cccc1Cc1nnc(SCC(=O)NCc2ccc(F)cc2)n1-c1ccc(F)cc1 | 0 | -2 | 2 | 5 | 4 | 6 | i | 10
O=C(c1ccc2c(c1)OCO2)C1CCCN(C(=O)c2cnn(Cc3ccccc3)c2)C1 (centres undefined) | 4 | -7 | -4 | -4 | 7 | 8 | i | -17
C=CCOc1ccc(/C=C2\SC(=S)N(NS(=O)(=O)c3ccccc3)C2=O)cc1 | 12 | . | 2 | -1 | -5 | 0 | i | 10
O=C(Nc1nnc(-c2ccco2)s1)C1CCCCC1 | 46 | -16 | 7 | 7 | 13 | . | i | -2
N#Cc1ccccc1COC(=O)c1cccc(S(=O)(=O)N2CCCC2)c1 | . | -9 | 1 | 1 | . | 14 | . | .
CC(C)CC(O)C1CCN(C(=O)CCc2nnc(-c3ccccc3)o2)CC1 (centres undefined) | 0 | . | 2 | 5 | 12 | 13 | . | -2
COc1ccc(NC(=S)NC(=O)c2ccc3c(c2)OCCO3)cc1 | . | -11 | 8 | -17 | . | . | . | -4
COc1cccc(CC2(CO)CCCN(Cc3ccc(C)s3)C2)c1 (centres undefined) | -6 | . | -4 | -1 | -9 | -7 | i | 24
CN(C)c1nc(-c2ccccc2)ns1 | 0 | . | 0 | 2 | 7 | -24 | i | -2
CC1(C)Cc2nc3oc4c(=O)n(CC(=O)Nc5ccc(Cl)cc5)cnc4c3cc2CO1 | -11 | -7 | -2 | -4 | -1 | 5 | i | -4
COc1ccc(CNC(=O)Nc2cccc(C)c2)cc1 | 2 | -12 | -1 | -5 | -12 | -28 | i | .
O=C(CNC(=O)C1(c2ccccc2)CC1)Nc1ccc(F)c(F)c1 | . | -5 | 0 | -3 | . | -5 | i | .
NC(=O)COC(=O)c1ccc(S(=O)(=O)N2CCCCCC2)cc1 | -3 | -4 | 1 | 4 | -8 | . | i | -12
Cc1ccc(S(=O)(=O)N2[C@@H](c3cccc(Cl)c3)C(C(=O)OC(C)(C)C)=CC[C@H]2c2cccc(Cl)c2)cc1 | . | 3 | -20 | -24 | . | 13 | . | .
CCOC(=O)N=S(N)(=O)c1ccc(Cl)cc1 (centres undefined) | 7 | -17 | 5 | 9 | -2 | . | i | -4
Cc1cc(S(=O)(=O)Nc2ccc(C(=O)NCCCN3CCOCC3)cc2)ccc1F | . | . | -3 | 1 | . | 1 | i | -7
CCCc1cc(=O)oc2cc(OCc3cccc(OC)c3)c(Cl)cc12 | -3 | . | 5 | 1 | -4 | -17 | i | 6
CCOc1ncccc1C(=O)OCc1ccc(C#N)cc1 | 7 | . | 3 | 8 | -3 | -117 | i | -5
COc1cc(OC)cc(-c2c(C#Cc3ccsc3)c3cc(-c4ccc(OC)cc4F)ccc3n2C)c1 | . | -17 | -8 | 1 | . | -25 | . | 0
Cc1c(Nc2cc(Cl)c3nonc3c2[N+](=O)[O-])c(=O)n(-c2ccccc2)n1C | 1 | . | 17 | 12 | -10 | i | . | .
O=C(CN1C(=O)c2ccccc2C1=O)NCCOc1ccccc1 | -2 | . | 0 | 2 | 2 | -6 | i | -9
CN(C(=O)C1CCCO1)c1nnc(-c2ccncc2)s1 (centres undefined) | 6 | -24 | 0 | 4 | 5 | . | i | -3
N#Cc1c(-c2ccccc2)nc(SCC(=O)NC2CCCCC2)[nH]c1=O | -5 | . | 0 | 5 | -7 | 24 | i | -8
COc1ccccc1CNC(=O)C(c1ccccc1)c1ccccc1 | -11 | -21 | -5 | -1 | -3 | 28 | i | -15
Cc1cccc(C2c3[nH]c4ccccc4c3CCN2C(=O)c2cn(C)c3ccccc3c2=O)n1 (centres undefined) | -7 | . | -1 | 6 | -3 | -9 | i | -15

Reprinted from the part before: three compounds; new compounds follow.
SMILES | eIF4H inh | Yeast UUG start | MT1-MMP act inh | MT1-MMP act inh RFP | PABP FP inh | Env fusion inh | Rce1 inhib | CSC inhib | others
N#Cc1c(-c2ccccc2)nc(SCC(=O)NC2CCCCC2)[nH]c1=O | -5 | . | 0 | 5 | -7 | 24 | i | -8
COc1ccccc1CNC(=O)C(c1ccccc1)c1ccccc1 | -11 | -21 | -5 | -1 | -3 | 28 | i | -15
Cc1cccc(C2c3[nH]c4ccccc4c3CCN2C(=O)c2cn(C)c3ccccc3c2=O)n1 (centres undefined) | -7 | . | -1 | 6 | -3 | -9 | i | -15
N#Cc1cc2c(nc1SCc1ccccc1)CCCC2=O | -5 | -11 | -2 | 2 | 0 | 6 | i | 10
Cc1nc(-c2ccc(Cl)cc2)sc1C1(C)CC(c2cccc(Cl)c2)=NO1 (centres undefined) | -14 | -8 | 4 | 5 | -3 | -8 | i | 21
CCCOc1ccc(NC(=O)C2OC3OC(C)(C)OC3C3OC(C)(C)OC23)cc1 (centres undefined) | 3 | . | . | . | 2 | . | i | -5
CN(CC(=O)Nc1ccccc1C(F)(F)F)C(=O)CN1C(=O)C2CCCCC2C1=O (centres undefined) | . | -9 | -2 | 4 | . | . | . | 11
Cc1ccc(NC(=O)CSc2nnc(-c3cccs3)n2Cc2ccco2)cc1 | -5 | -13 | -2 | -2 | 1 | 46 | . | 8
O=C1N/C(=C/c2cccn2-c2ccc(F)cc2)C(=O)N1Cc1ccccc1 | -8 | -15 | -10 | -7 | 10 | -52 | i | .
CC1(OC(=O)CCc2ccccc2)C(=O)C=C2C=C(c3ccc(C#N)cc3)N(Cc3ccco3)C=C2C1=O (centres undefined) | 41 | -13 | 1 | 12 | 42 | -76 | i | 12
CCOc1ccccc1OCCC(=O)OCC(=O)c1ccc[nH]1 | 59* | . | 0 | 2 | 3.8* | 17 | . | 0 | eIF4H inh retest=88*;PABP FP inh retest=59*
CCOc1ccc(OCC)c(NC(=O)CCCN2C(=S)NC(C)(C)CC2C)c1 (centres undefined) | -6 | -41 | 2 | 0 | 82 | -2 | i | 10 | eIF4H inh retest=-3;PABP FP inh retest=-6
O=C(c1ccco1)N1C(=O)c2cccc3cccc1c23 | 0 | -13 | -4 | 3 | 4 | . | . | -7
COc1cc(OC)cc(C(=O)NNC(=O)c2ccc(S(=O)(=O)N(C)c3ccccc3OC)cc2)c1 | -6 | -14 | 1 | -7 | -3 | -2 | i | 1
COc1ccc(OC)c(/C=N/NC2=NS(=O)(=O)c3ccccc32)c1 | 0 | -29 | 4 | 8 | -1 | 9 | i | 7
COc1ccc(N2CCN(C(=O)c3ccc(CS(=O)(=O)c4ccc(OC)cc4)o3)CC2)cc1 | -5 | -12 | -3 | 2 | 5 | 3 | i | -10
Cc1c(C(=O)Nc2ccc3c(c2)CCC3)cccc1[N+](=O)[O-] | -6 | -7 | 5 | 3 | 9 | . | i | 18
CCOc1ccc2nc(C(=O)N3CCCC(C)C3)sc2c1 (centres undefined) | -10 | . | -2 | -1 | 7 | -114 | i | -8
COCCNC(=O)/C(C#N)=C\c1ccc(CNS(=O)(=O)c2ccc(C)cc2)o1 | 2 | . | 4 | 2 | -12 | 20 | i | -4
Cc1c(NC(=O)Nc2ccccc2C(F)(F)F)c(=O)n(-c2ccccc2)n1C | -1 | -12 | -4 | -1 | -4 | 15 | i | -13
COc1ccc(-c2nc(-c3ccc4c(c3)OCO4)[nH]c2-c2ccc(OC)cc2)cc1 | 7 | -7 | 7 | -24 | 1 | -103 | i | .
O=C(Nc1ccccc1C(F)(F)F)c1cc(-c2cccc(O)c2)on1 | 0 | -23 | 1 | -3 | -18 | -62 | . | 14
Cc1cc(C(F)F)n2ncc(C(=O)NCCc3ccc(Cl)cc3)c2n1 | -1 | -5 | -2 | -2 | -7 | -142 | i | 19
Cc1cc(C)c(NS(=O)(=O)c2ccc3c(c2)NC(=O)CCS3)c(C)c1 | 1 | 4 | -5 | 2 | 7 | 17 | i | -2
Cc1ccccc1OCCC(=O)Nc1ccc(Cl)cc1F | 3 | -9 | 3 | 3 | -14 | -15 | i | 5
CCc1nn(C(CC)C(=O)NCc2cccc(OC)c2OC)c(=O)c2cc3occc3n12 (centres undefined) | -1 | -1 | -3 | 2 | 7 | -5 | i | -18
COc1ccc(Nc2cnn(-c3nc4ccccc4s3)c(=O)c2Cl)cc1 | -6 | -29 | 9 | -2 | 5 | -16 | i | 0
COc1ccc(CC(=O)OC(C)CN2CCCC2)cc1 (centres undefined) | -2 | -10 | 2 | 0 | -6 | -1 | i | 8

Additional records follow:
SMILES | eIF4H inh | Yeast UUG start | MT1-MMP act inh | MT1-MMP act inh RFP | PABP FP inh | Env fusion inh | Rce1 inhib | CSC inhib | others
Cc1ccccc1C(=O)NC(=S)Nc1sc2c(c1C#N)CCC(C)C2 (centres undefined) | 2 | 7 | -9 | -6 | 1 | -478 | i | -4
CCc1nc2ccccc2n1CC(=O)NC1CCS(=O)(=O)C1 (centres undefined) | . | -10 | 2 | 0 | . | -12 | . | -15
CN(CCCNC(=O)C1CCC(CNS(=O)(=O)c2ccccc2)CC1)Cc1ccccc1 (centres undefined) | -6 | -6 | 0 | -1 | 6 | 17 | i | 44
C#CCOCCOCCOCCNc1nc(N2CCN(C(=O)Cn3cc(CCO)nn3)CC2)nc(N2CCN(C(=O)[C@H]([C@@H](C)CC)n3cc(CCCCN)nn3)CC2)n1 | . | 22 | 4 | 3 | . | -25 | . | .
c1ccc(-c2cc3c(N4CCN(c5ccccc5)CC4)ncnc3s2)cc1 | 8 | -21 | 1 | 0 | 1 | 1 | i | 23
CCOC(=O)N1CCN(CC(=O)Nc2c(C(=O)OC)[nH]c3cc(C)ccc23)CC1 | -3 | -3 | -2 | -1 | 2 | 32 | i | -10
CC(C)=CCCC(C)CN1CCC(N2CCC(C(=O)N3CCCC3)CC2)CC1 (centres undefined) | 8 | -11 | 7 | 1 | 8 | 8 | i | 10
CCOCCn1c(=O)c2c(nc3n2CC(C)CN3CCc2ccccc2)n(C)c1=O (centres undefined) | -23 | -18 | 0 | -1 | -4 | 20 | i | 28
O=C(Oc1coc(CSc2ncccn2)cc1=O)c1ccco1 | 8 | . | 5 | 7 | 11 | 2 | i | -22
CC(C)CCNC(=O)C(C)N(Cc1ccc(F)cc1)C(=O)c1ccc(CN2CCCCC2)o1 (centres undefined) | -6 | . | 6 | 3 | -2 | . | i | 0
CCCCNC(=O)N(C)c1nc2ccccc2s1 | -11 | 4 | 4 | 1 | -5 | -1 | i | .
Cc1cc(C)c2nc(N(CCCN(C)C)C(=O)c3ccc(S(=O)(=O)N4CC(C)OC(C)C4)cc3)sc2c1 (centres undefined) | . | -1 | 1 | 2 | . | -17 | i | 0
CC(c1n[nH]c(=S)n1-c1ccc(Cl)cc1)N(C)C (centres undefined) | 1 | -12 | -1 | 9 | 0 | . | i | -9
Cc1cc(N2C(=O)c3ccc(C(=O)Nc4ccc(O)cc4C(=O)O)cc3C2=O)no1 | 9 | 5 | 2 | 2 | 9 | . | i | 8
CC(C)Cn1c2c(c(O)c(C(=O)Nc3nc4ccccc4s3)c1=O)CCCC2 | 0 | -15 | 2 | -3 | -2 | 8 | i | 9
O=C(CSc1nnnn1-c1ccc(O)cc1)NC1CCCCC1 | -2 | . | 3 | -3 | -2 | -20 | i | .
COc1ccc(CC(=O)N2N=C(c3ccncc3)CC2(O)C(F)(F)F)cc1 (centres undefined) | 11 | . | -6 | -8 | 0 | -9 | i | 57
C/C=C/c1ccc(OCCOc2ccc(C=O)cc2OC)c(OC)c1 | -9 | . | 0 | -7 | -5 | -2 | i | -5
O=C(Cn1cnc2ccccc21)c1ccccc1 | -2 | -15 | -3 | -4 | 6 | 14 | i | .

Bioassay records deposited in PubChem by several laboratories.
